Screening results: PubChem BioAssay, several laboratories
RanGTP-Imp inh: inhibitors of RanGTP-importin-beta interaction, primary screen, biochemical, FRET, CFP-Ran, YFP-importin-beta, homogeneous | cell-free CFP-Ran/YFP-importin-beta FRET ratio | inhibition, % (no concentration beside the values) | 1.1% of 300,000 active;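 active means most replicates above 15%; inconclusive means exactly half above 15%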;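 further: 0% = DMSO wells and 100% = Ran loaded with GDP instead of GTP; wells of about 40 µL received 100 nL stock; the first replicate is given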
Vif TR-FRET: inhibitors of Vif binding to APOBEC3G peptide, primary screen, biochemical, TR-FRET, GST-Vif 1-94, biotin-A3G peptide, dose response retest (AID 1117319); TR-FRET GST-Vif / biotin-A3G peptide binding; higher % means a stronger effect; test concentration not given here; strong numbers were not always called active; one-dose inhibition, %; IC50 in µM for titrated hits; 0.57% of 260,000 active;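 active means above the screen mean plus three standard deviations and confirmed in dose response; inconclusive means results disagree or hit not tested in dose response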;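 further: Vif residues 1-94 fused to GST binding biotinylated APOBEC3G peptide 110-148; 0% = full assay without inhibitor and 100% = GST in place of GST-Vif; retest series ran down from 100 µM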
FGF22 binding: FGF22 (human) thermal shift binding; Q9HCT0; recombinant FGF22 thermal shift, SYPRO orange fluorescence; percent of sucrose octasulfate shift, DMSO zero; calls only at 9.99 µM; 1.5% of 340,000 active;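 active means melting point raised past a set limit in the mean and every replicate; inconclusive means no clear call; three in four hits are not shown here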
Target sequence (Q9HCT0 whole entry, looked up): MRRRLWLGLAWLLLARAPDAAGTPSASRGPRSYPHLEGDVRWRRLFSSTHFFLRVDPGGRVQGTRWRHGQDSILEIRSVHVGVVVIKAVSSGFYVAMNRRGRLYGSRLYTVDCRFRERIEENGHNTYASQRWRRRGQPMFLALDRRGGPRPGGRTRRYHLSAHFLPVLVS
HNF4A DNA FP: change in binding of human HNF4 alpha to DNA | P41235 | HNF4a-FITC DNA binding, fluorescence polarization, 1 h | activity change, % at 10 µM | 0.3% of 360,000 active | AID 1224865; in the data active means activity change above about 30%, passing the limit was not always enough;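 further: controls were the assay level and a saturating level of protein; the project sought stronger binding though the title names inhibitors; some compounds called inactive have numbers as strong as hits; positive values seem to mean higher polarization but the record does not say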
Target sequence (P41235 whole entry, looked up): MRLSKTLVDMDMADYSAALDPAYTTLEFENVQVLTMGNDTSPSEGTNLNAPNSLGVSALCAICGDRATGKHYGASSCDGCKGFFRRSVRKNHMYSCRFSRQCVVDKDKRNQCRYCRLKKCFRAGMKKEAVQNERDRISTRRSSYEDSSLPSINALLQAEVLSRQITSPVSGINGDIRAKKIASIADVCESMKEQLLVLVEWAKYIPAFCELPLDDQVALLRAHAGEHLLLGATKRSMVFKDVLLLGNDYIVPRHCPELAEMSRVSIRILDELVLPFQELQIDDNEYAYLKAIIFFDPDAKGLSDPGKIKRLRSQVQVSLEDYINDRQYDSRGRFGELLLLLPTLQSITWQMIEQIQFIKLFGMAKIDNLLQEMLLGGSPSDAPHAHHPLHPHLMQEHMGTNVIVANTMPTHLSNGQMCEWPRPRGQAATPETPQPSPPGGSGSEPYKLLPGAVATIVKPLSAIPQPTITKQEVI
Ecoli growth: E. coli growth inhibition. Escherichia coli growth, OD600, 23 h; stronger effect = lower value. OD600 absorbance (no concentration beside the values). 0.21% of 330,000 active;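 active means OD600 absorbance below the run mean of sample wells minus 3.6 SD, in any replicate, cut at about 0.56 in these data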;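 further: stock transfer was 300 nL into about 60 µL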
AF4-AF9 inh: MLL-AF4/AF9 protein interaction inhibition; inhibition, % at 10 µM; AlphaScreen, biotin-AF4 peptide binding to FLAG-AF9; 0.47% of 350,000 active; AID 651704;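 active means every replicate reaching a set inhibition limit, whatever the replicate mean, cut at about 25% in these data; inconclusive means mean inhibition reaches that limit but some replicates miss it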;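 further: 0% = plate neutral control median and 100% = total signal loss; the record names both 10 and 1 µM as test concentration; the first replicate is given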
UCH37 inh: human UCH37 deubiquitinating enzyme inhibition | Q9Y5K5 | purified proteasome/UCH37, Ub-AMC cleavage fluorescence | inhibition, % (no concentration beside the values) | 0.33% of 330,000 active | AID 588478;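 active means mean of two replicates above 20%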;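 further: 0% = compound-free wells with enzyme and 100% = wells lacking proteasome; stock transfer was 100 nL into about 20 µL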
Target sequence (Q9Y5K5 whole entry, looked up): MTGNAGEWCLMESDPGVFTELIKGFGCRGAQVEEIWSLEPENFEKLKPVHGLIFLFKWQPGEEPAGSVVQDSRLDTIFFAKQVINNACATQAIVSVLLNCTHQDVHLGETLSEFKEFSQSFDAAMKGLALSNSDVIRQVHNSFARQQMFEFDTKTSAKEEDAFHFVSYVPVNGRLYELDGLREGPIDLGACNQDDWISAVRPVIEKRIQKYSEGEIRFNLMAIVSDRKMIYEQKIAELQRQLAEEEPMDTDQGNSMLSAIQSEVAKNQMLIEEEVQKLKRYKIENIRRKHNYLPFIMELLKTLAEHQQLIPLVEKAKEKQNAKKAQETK
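Signal – fluorescence, ex 355 nm, em 460 nm · System – Proteasome-bound UCH37 · Input – 0.15 nM proteasome as dispensed · Timing – 30 min preincubation with enzyme, 25 min cleavage at room temperature · Read-out basis – percent inhibition of cleavage signal versus uninhibited and no-proteasome wells · Medium – Tris-HCl pH 7.4 with ATP-MgCl2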
* = called active by the depositor; i = inactive; ? = inconclusive; nt = no result given; & = joins results of further samples. Some of the compounds tested; count on the stated rates, not on these rows.

The first three entries as a preview:
SMILES	RanGTP-Imp inh	Vif TR-FRET	FGF22 binding	HNF4A DNA FP	Ecoli growth	AF4-AF9 inh	UCH37 inh
CCN(CCn1cccn1)C(=O)c1cc(COc2c(F)cccc2F)on1	6.0	-7%	i	-2.8	0.68	-1.7	2.3
CC1=CC(C)(C)n2c(O)c(C3=NC(=S)NC3=O)c3cc(OC(=O)c4cccc5ccccc45)cc1c32	1.2	5%	nt	-2.5	0.82	nt	-0.1
C/C(=N/NS(=O)(=O)c1ccc(C(C)C)cc1)c1ccncc1	3.2	nt	i	-1.6	nt	-1.1	nt

Main list, previewed entries included:
SMILES	RanGTP-Imp inh	Vif TR-FRET	FGF22 binding	HNF4A DNA FP	Ecoli growth	AF4-AF9 inh	UCH37 inh
CCN(CCn1cccn1)C(=O)c1cc(COc2c(F)cccc2F)on1	6.0	-7%	i	-2.8	0.68	-1.7	2.3
CC1=CC(C)(C)n2c(O)c(C3=NC(=S)NC3=O)c3cc(OC(=O)c4cccc5ccccc45)cc1c32	1.2	5%	nt	-2.5	0.82	nt	-0.1
C/C(=N/NS(=O)(=O)c1ccc(C(C)C)cc1)c1ccncc1	3.2	nt	i	-1.6	nt	-1.1	nt
CC1CCCN(C(=O)CSc2nc3ccccc3o2)C1 (stereo not drawn)	-0.3	-2%	nt	3.4	0.69	nt	-0.3
CC1CCN(S(=O)(=O)c2cccc(C(=O)NC3CCCC3)c2)CC1	1.7	nt	i	2.2	0.73	-1.2	-2.1
CCCCN(C=O)c1c(CC)nc2c(OCc3ccc(C(F)(F)F)cc3)cccn12	nt	nt	i	-2.3	nt	0.1	nt
COc1ccc(C(=O)OC2CCN(C)CC2)cc1	1.8	nt	nt	2.9	0.8	nt	-0.5
Cc1ccccc1NC(=O)C1CCCN1S(=O)(=O)c1ccccc1C(F)(F)F (stereo not drawn)	nt	8%	i	2.7	0.69	-11	0.3
O=C(/C=C\Nc1ccc(S(=O)(=O)Nc2ncccn2)cc1)c1cccc2ccccc12	7.0	-1%	i	1.3	0.72	-2.5	6.9
CC(C)CC(=O)Nc1ccc(-c2cn3ccsc3n2)cc1	nt	-1%	nt	2.9	0.69	nt	1.4
Cc1ccc(C)c(N2CCN(C(=O)C3CCN(S(=O)(=O)c4cccc5nsnc45)CC3)CC2)c1	-3.9	4%	nt	3.2	0.75	nt	5.4
CC(C)CNS(=O)(=O)c1cc(C(=O)O)c(Cl)cc1Cl	2.7	6%	i	-4.6	0.68	-0.8	-0.5
CCC(=O)N1c2ccccc2NC2=C(C(=O)CCC2)C1c1cccnc1 (stereo not drawn)	2.7	17%	nt	2.5	0.68	nt	7.0
CC1(C)CC(=O)c2sc(NC(=O)C3CC3)nc2C1	-3.6	-3%	i	4.6	0.76	6.0	5.6
O=C(COC(=O)Cc1ccc(Cl)cc1)NCc1cccs1	nt	nt	i	4.9	0.68	-1.6	3.1
O=C(CSc1ncnc2c1cnn2-c1ccccc1)Nc1ccc2c(c1)OCO2	-0.3	0%	nt	-1.4	nt	nt	nt
COCc1c(Br)c(C)[nH]c(=O)c1C#N	2.8	7%	nt	-0.7	0.71	nt	-85
O=[N+]([O-])c1ccc(O)c(Nc2ncnc3ccc(Br)cc23)c1	-4.8	-5%	i	-1.2	0.7	-0.4	12
Cc1nnc(SCC(=O)NNC(=O)COc2ccc(Cl)cc2)s1	2.4	3%	i	-6.0	0.7	-0.4	-0.3
COc1ccc(C)cc1S(=O)(=O)N(CC(=O)Nc1cccc([N+](=O)[O-])c1)c1ccc(C)c(C)c1	2.2	-4%	i	-5.7	0.66	-4.3	5.3
CCS(=O)(=O)NCC(c1cccnc1)N1CCN(c2ccc(OC)cc2)CC1 (stereo not drawn)	3.1	25%	nt	-0.7	0.69	5.6	4.7
CN1CCN(C(=O)c2cnn(-c3ccccc3)c2NC(=O)c2cccs2)CC1	?	7%	nt	1.4	0.67	nt	6.2
CC(=O)Nc1ccc(NC(=O)Nc2cccc3ccccc23)cc1	2.6	-3%	i	2.6	0.69	-0.5	-3.1
Cc1noc(C)c1COc1cccc(C(=O)Nc2ccccc2)c1	nt	-3%	i	3.5	0.66	-0.7	1.1
CCOC(=O)C1=C(COC(=O)C2(C)CC2(Cl)Cl)NC(=O)NC1c1ccccc1 (stereo not drawn)	2.7	8%	i	-0.2	0.64	-1.0	-4.8

More entries
SMILES	RanGTP-Imp inh	Vif TR-FRET	FGF22 binding	HNF4A DNA FP	Ecoli growth	AF4-AF9 inh	UCH37 inh
CC(=O)c1ccc(-c2cnc3c(NC=O)cc(-c4cnn(C)c4)cn23)cc1	nt	nt	i	-5.3	nt	1.9	nt
CC(=O)Nc1sc(/C(C#N)=C\c2cccc(Cl)c2)nc1-c1ccc(C)cc1	-234	nt	i	32	0.72	-6.7	-11
CSc1nc(C)cc(Oc2ccc(=O)n(C)n2)n1	1.5	32%	nt	-0.3	0.65	nt	1.6
COc1ccc(-c2cn[nH]c2N)cc1	-2.4	30%	nt	-2.8	0.71	nt	1.3
Cc1ccnc(SCCn2c(N3CCN(c4ccccc4)CC3)nc3c2c(=O)[nH]c(=O)n3C)n1	-5.2	1%	i	1.6	0.73	-12	5.1
CCOC(=O)CN(C(=O)CSc1nnc2c(n1)[nH]c1ccc(F)cc12)c1ccccc1	-1.9	1%	nt	0.5	0.7	nt	5.4
COc1ccc(Cl)cc1CN1C(=O)NC2(CCCCCC2)C1=O	1.9	nt	i	-4.9	0.69	-2.2	0.0
CCCOC(=O)C1=C(C)NC(=O)NC1c1cccc2ccccc12 (stereo not drawn)	-2.2	nt	i	0.0	0.67	-2.2	2.8
Cc1ccc(NC2CC(=O)N(c3cccc([N+](=O)[O-])c3)C2=O)cc1 (stereo not drawn)	-2.2	?	i	4.1	0.67	-2.7	2.2
CN(/N=C/c1ccco1)C1=NS(=O)(=O)c2ccccc21	7.7	nt	nt	-3.5	nt	-1.2	nt
O=C(NCC1CCOCC1)c1cc(COc2cccc(C(F)(F)F)c2)on1	4.0	nt	i	-0.1	0.61	-1.9	1.8
Cc1cc(C)c(C(=O)NC2CCCc3c2cnn3-c2ccc(C)c(C)c2)c(=O)[nH]1 (stereo not drawn)	1.3	nt	i	1.0	0.65	-0.2	2.4
Cc1c(C)n(CCO)c2ncnc(Nc3ccc(F)cc3)c12	-4.3	-3%	i	-1.3	0.66	3.1	2.3
COC(=O)C(Cc1ccccc1)NC(=O)CCCC(=O)NCc1cccc(OC)c1 (stereo not drawn)	-0.2	-8%	i	-3.4	0.67	-3.1	4.4
CN(CCc1ccccc1)C(=O)CCc1nnc(Cc2ccc3c(c2)OCO3)o1	1.9	-2%	i	5.5	0.7	-3.7	-0.3
CCOc1cccc(C(=O)Nc2ccc3ccccc3c2)c1	-0.3	nt	i	1.5	0.68	0.0	-0.6
CCN(CC)C(=O)CSc1nnc(NC(=O)CCc2ccccc2)s1	3.0	-1%	i	-4.7	0.66	-4.6	3.0
CCOC(=O)C1(Cc2cccc(Cl)c2)CCCN(C(=O)c2ccc(COC)s2)C1 (stereo not drawn)	3.2	nt	i	1.6	nt	-7.2	nt
Cc1ccccc1NC(=S)N(CCN1CCOCC1)Cc1ccccc1F	-4.9	nt	i	5.2	0.69	-0.6	1.2
CCOc1c(Cl)cc(Cl)cc1CNCCNCCO	-0.2	-2%	nt	3.5	0.68	nt	1.5
COC(=O)C(NNc1ccc(F)cc1)(NC(=O)c1ccccc1)C(F)(F)F (stereo not drawn)	nt	-10%	nt	4.2	0.73	nt	-0.8
COc1cccc(NC(=O)CN(C)C(=O)CCCc2nc3ccccc3s2)c1	-1.8	91%	i	-2.1	0.68	?	1.7
CC(=O)c1ccc(OC(=O)CCc2nc3ccccc3s2)cc1	-2.5	-2%	i	-3.0	0.68	-10	6.6
COC(=O)c1ccc(N2CCN(S(=O)(=O)c3ccc(C)cc3)CC2)c([N+](=O)[O-])c1	0.0	5%	nt	2.2	0.71	nt	1.2
CC(C)(C)c1ccc(OCC(=O)Nc2ccncc2)cc1	1.8	nt	i	1.2	0.64	2.7	1.7

Next structures:
SMILES	RanGTP-Imp inh	Vif TR-FRET	FGF22 binding	HNF4A DNA FP	Ecoli growth	AF4-AF9 inh	UCH37 inh
COc1cccc(/C(O)=C2/C(=O)C(=O)N(CCCN3CCOCC3)C2c2ccncc2)c1 (stereo not drawn)	-3.8	3%	nt	4.1	0.72	nt	20*
Cc1[nH]nc(SCC(=O)NC(C)c2ccccc2)c1[N+](=O)[O-] (stereo not drawn)	5.2	nt	nt	-0.1	0.72	nt	-0.4
Cc1cc(NC(=O)c2nn3cccnc3c2Cl)no1	5.4	-5%	nt	-0.1	0.66	nt	0.8
COc1ccc(C(=O)N2C(=S)NC(=O)/C2=C\c2ccc(C)cc2)cc1	9.7	0%	i	19	0.69	-4.8	-5.0
CC(C)[C@H](NC(=O)c1ccco1)C(=O)N(C)Cc1ccc(C(F)(F)F)cc1	-0.5	nt	i	1.1	0.67	-13	3.8
c1ccc(CCNCCOc2ccccc2)cc1	1.2	nt	i	2.7	0.69	1.3	4.0
CCN(Cc1ccccc1)C(=O)c1ccc(C)c(S(=O)(=O)N2CCCCC2)c1	nt	nt	i	1.8	0.66	3.3	2.6
COc1ccc(OC(=O)N(C)C[C@H]2OCc3cn(nn3)CCCC(=O)N([C@H](C)CO)C[C@@H]2C)cc1	nt	-3%	i	1.5	nt	-1.6&4.3	nt
COc1ccc(NC(=S)N2CCN(c3ncccn3)CC2)c(OC)c1	0.0	7%	i	-1.8	0.64	-3.0	3.1
O=C(CCSCc1ccccc1Cl)N1CCN(c2cccc(Cl)c2)CC1	?	-4%	nt	-0.2	0.68	nt	1.2
O=C(NNC(=S)NC1CC2C=CC1C2)c1ccncc1 (stereo not drawn)	4.6	nt	i	-0.3	0.66	-4.3	6.0
COC(=O)c1cc(S(=O)(=O)N2c3ccccc3CC2C)cn1C (stereo not drawn)	-0.5	nt	i	1.8	0.65	-6.4	3.5
OCC1(Cc2ccccc2)CCN(Cc2cnc(-c3cccc4ccccc34)nc2)CC1	-4.4	24%	i	1.5	0.65	3.4	-8.0
CC(C)N(CCCNC(=O)Cn1ncc2c([nH]c3ccccc32)c1=O)Cc1ccccc1	?	nt	i	3.0	0.68	4.2	1.7
Cc1ccc(NC(=O)CSc2nnnn2C2CC2)cc1S(=O)(=O)N1CCOCC1	nt	-7%	i	-1.2	0.68	1.4	1.2
O=C(O)c1cccc(N2C(=O)C=CC2=O)c1	nt	13%	i	2.0	nt	-4.9	nt
C=CC[C@H](CC(=O)N[C@H](CO)Cc1ccccc1)C(=O)N[C@H](COC(=O)[C@@H](CC=C)CC(=O)OC(C)(C)C)Cc1c[nH]c2ccccc12	nt	nt	nt	0.0	nt	1.0	5.6
CCN(Cc1ccccc1)S(=O)(=O)c1cc2[nH]c(=O)c(=O)[nH]c2cc1C	3.2	-5%	i	3.3	0.77	-0.9	-8.1
Nc1ccccc1C(=O)NCCN1CCNC1=O	-3.2	10%	i	0.3	0.64	0.1	-95
COc1cc(Cl)ccc1OCc1cc(C(=O)N[C@H]2CCCCNC2=O)no1	-2.1	nt	i	2.5	0.69	-0.5	2.6
COc1ccc(S(=O)(=O)Nc2ccc(F)cc2)c(C)c1C	9.1	-4%	nt	-0.1	0.69	nt	1.4
COc1ccc(OC(F)(F)F)cc1CC1(C)C(=O)Nc2ccc(S(=O)(=O)NC3CCCCC3)cc21 (stereo not drawn)	nt	nt	i	-3.6	nt	5.3	nt
CCc1n[n+](CC(=O)c2ccccc2)c(N)s1	nt	?	nt	-0.8	0.71	1.3	3.1
CCCCCN=Cc1c(C)[nH]n(-c2nc3ccccc3s2)c1=O	0.5	-1%	nt	-0.1	0.72	nt	7.5
Cc1ccc(CSc2nnc(-c3ccncc3)n2CC2CCCO2)cc1 (stereo not drawn)	-0.3	-5%	nt	1.4	0.71	nt	3.0
